# Mtb MbtI inh: MbtI salicylate synthase inhibition. 0.89% of 100,000 active. AID 493033. inhibition, %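 (about 17 µg/mL by stock and volumes)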. purified MbtI enzyme, fluorescence intensity read-out;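 active = above 50% in both replicates, above 80% if mildly self-fluorescent; inactive = the rest, strongly fluorescent compounds included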;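 note: 0% = mean of negative and 100% = mean of positive controls; one replicate is shown; some compounds called inactive have numbers as strong as hits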
# Target sequence (P9WFX0 whole entry, looked up): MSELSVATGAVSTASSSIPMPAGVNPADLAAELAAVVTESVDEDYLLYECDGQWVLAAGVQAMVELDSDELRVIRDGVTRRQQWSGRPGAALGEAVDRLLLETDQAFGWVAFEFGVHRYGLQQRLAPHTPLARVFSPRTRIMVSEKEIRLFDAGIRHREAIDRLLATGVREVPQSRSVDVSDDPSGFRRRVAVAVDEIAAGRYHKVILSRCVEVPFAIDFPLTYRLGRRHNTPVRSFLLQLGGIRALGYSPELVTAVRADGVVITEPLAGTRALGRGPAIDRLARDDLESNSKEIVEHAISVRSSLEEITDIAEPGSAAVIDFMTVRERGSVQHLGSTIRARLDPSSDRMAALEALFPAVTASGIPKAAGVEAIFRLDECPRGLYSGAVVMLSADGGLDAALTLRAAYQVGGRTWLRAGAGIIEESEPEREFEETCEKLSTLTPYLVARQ
# Polio RdRp inh: inhibitors of poliovirus RNA polymerase binding and polymerization. P03300. poliovirus polymerase elongation, fluorescence polarization; active compounds read low. % elongation, % (compound at 16.7 µg/mL). 0.66% of 150,000 active. AID 588519; in the data active = % elongation below about 90%; note: some results filed as inactive read as strong as hits
# Target sequence (P03300 1749-2209 limits assumed): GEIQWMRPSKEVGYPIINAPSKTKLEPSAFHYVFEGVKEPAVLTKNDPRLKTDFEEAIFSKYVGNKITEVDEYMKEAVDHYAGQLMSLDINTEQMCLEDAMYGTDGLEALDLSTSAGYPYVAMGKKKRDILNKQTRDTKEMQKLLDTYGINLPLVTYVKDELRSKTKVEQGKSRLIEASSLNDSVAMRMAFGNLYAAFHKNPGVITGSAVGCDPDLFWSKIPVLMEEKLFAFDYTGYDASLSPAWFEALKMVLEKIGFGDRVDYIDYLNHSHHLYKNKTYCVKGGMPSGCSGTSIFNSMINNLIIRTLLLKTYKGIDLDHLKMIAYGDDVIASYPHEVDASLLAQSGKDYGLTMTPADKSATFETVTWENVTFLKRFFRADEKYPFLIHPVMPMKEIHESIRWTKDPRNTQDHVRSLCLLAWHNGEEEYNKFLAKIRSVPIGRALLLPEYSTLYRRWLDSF
# Mtb MenB inh: Mtb MenB enzyme inhibition | P9WNP5 | MenB enzyme assay, absorbance read-out; some hits fall short of the stated cut | inhibition, %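 (about 12 µg/mL by stock and volumes)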 | 0.43% of 100,000 active;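 active = mean of two replicates above 30%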;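 note: 0% = no compound and 100% = wells with inactive enzyme; the first replicate is given; strong numbers were not always called active; inactives centre near -10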
# Polio RdRp inh intensity: recorded beside Polio RdRp inh, whose call it bears; % elongation; measured here: total intensity read-out; formula for this scale not given here;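 total fluorescence in place of polarization; lower means less elongation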
# Starred values were filed as active, the others as inactive; / = not tested or not shown; & = joins results of further samples. Hits appear at their usual frequency (roughly 1.8% active in at least one column).
Structure	Mtb MenB inh	Polio RdRp inh intensity	Polio RdRp inh	Mtb MbtI inh
Cc1nn(-c2ccccc2)c2sc(C(=O)NC(=S)NC3CCSC3=O)cc12 (stereo not drawn)	-21.4	107.0	103.0	-1.2
NS(=O)(=O)c1ccc(N=NN2CCCCCC2)cc1	-15.7	110.0	103.0	/
CC1(C)CC(n2c(SCC#N)nc3c(c2=O)C2(CCCC2)Cc2ccccc2-3)CCO1 (stereo not drawn)	12.9	101.0	101.0	-0.9
N#CCNC(=O)CN1C(=O)c2ccccc2C1=O	2.3	94.0	99.0	/
CN(C)S(=O)(=O)c1ccc(N2CCOCC2)nc1	-11.0	101.0	100.0	-10.1
Cc1ccc(N2C(=O)c3sc4nnc(-c5ccccc5)c(=O)n4c3C2=O)cc1	9.2	102.0	99.0	2.0
Cc1ccc(-c2cc(C(=O)Nc3ccc(Br)cc3F)c3ccccc3n2)o1	-4.0	106.0	100.0	-118.9
CN(C)CCCN1c2ccccc2Sc2ccc(Cl)cc21	-5.2&-5.4	100.0&99.0	102.0&100.0	-10.2&-4.8
Cc1[nH]nc2c1C(c1cccs1)C1=C(CCCC1=O)N2 (stereo not drawn)	/	105.0	102.0	-28.9
CCOC(=O)N/N=C1\CCCCC1C (stereo not drawn)	-12.7	95.0	102.0	-17.1
Nc1cccc(CN2CCCCC2)c1	-61.1	101.0	104.0	-0.9
CCCn1c(=O)c2c(=S)nc(-c3ccccc3OC)[nH]c2n(CCC)c1=O	-3.8	105.0	104.0	30.9
Cc1cc(C(=O)CC#N)c(C)n1Cc1ccccc1Cl	-41.0	109.0	104.0	7.8
C=CCNCC(=O)NC12CC3CC(CC(C3)C1)C2	-1.7	96.0	97.0	4.0
O=C(NNc1ccc(S(=O)(=O)N2CCCCC2)cn1)Nc1ccc(Cl)c(Cl)c1	11.6	96.0	102.0	-18.1
CN(C)S(=O)(=O)N1CCC(Cc2ccccc2)CC1	-6.3	113.0	104.0	/
Cc1sc(C(=O)O)c(-n2cccc2)c1C	-29.7	102.0	104.0	16.4
CN(c1ccc(CN2C(=O)c3ccccc3C2=O)cc1)S(C)(=O)=O	-24.1	99.0	99.0	-3.8
CCC(=O)OCCn1c(=O)c2ccccc2c2ccccc2c1=O	-43.9	99.0	103.0	-6.1
CC(Sc1ncnc2sc3c(c12)CCCC3)C(=O)O (stereo not drawn)	-1.6	100.0	100.0	/
CN(C(=O)COC(=O)c1cc2ccccc2cc1O)C1CCCCC1	-30.6	101.0	101.0	-33.0
Cc1ccc(OCCCC(=O)Nc2ccc3c(c2)OCO3)cc1	-31.6	102.0	101.0	-10.9
COc1cc(/C=C/C(=O)NC(C)C2CC3CCC2C3)cc(OC)c1OC (stereo not drawn)	/	97.0	100.0	-27.7
c1ccc(C2C3=C(CCCC3)SC3=C2CCCC3)cc1	-40.4	107.0	104.0	8.2
CCN(Cc1ccccc1)C(=O)C1CCN(Cc2ccc(C(F)(F)F)cc2)CC1	-4.1	105.0	99.0	/
CC(=O)Oc1ccc(OC(C)=O)c(S(=O)(=O)c2ccc(C)c(C)c2)c1	-15.1	100.0	101.0	0.8
CCOC(=O)N1CCN(CC(O)c2ccc3c(c2)CCN3)CC1 (stereo not drawn)	-14.5	104.0	103.0	-12.3
Cc1ccc2c(c1)=C(c1sc(=O)n(CC(=O)O)c1O)C(=O)N=2	-14.5	108.0	102.0	1.2
Cc1ccc(NC(=O)CN(C)C(=O)c2ccc(Br)o2)cc1	-8.0	108.0	107.0	-13.0
CNC(=O)NC(=O)C(Sc1nnc(-c2cc(OC)cc(OC)c2)o1)c1ccccc1 (stereo not drawn)	-12.1	109.0	102.0	-3.5

# A different layout for some results above.
CC(Sc1ncnc2sc3c(c12)CCCC3)C(=O)O (stereo not drawn)
  Mtb MenB inh: -1.6 | Polio RdRp inh intensity: 100.0 | Polio RdRp inh: 100.0 | Mtb MbtI inh: /
CN(C(=O)COC(=O)c1cc2ccccc2cc1O)C1CCCCC1
  Mtb MenB inh: -30.6 | Polio RdRp inh intensity: 101.0 | Polio RdRp inh: 101.0 | Mtb MbtI inh: -33.0
Cc1ccc(OCCCC(=O)Nc2ccc3c(c2)OCO3)cc1
  Mtb MenB inh: -31.6 | Polio RdRp inh intensity: 102.0 | Polio RdRp inh: 101.0 | Mtb MbtI inh: -10.9

# (more compounds)
Structure	Mtb MenB inh	Polio RdRp inh intensity	Polio RdRp inh	Mtb MbtI inh
COc1ccc(C(=O)OCC(=O)N(C)C2CCCCC2)cc1	/	101.0	102.0	-8.9
Cc1nc2sccn2c(=O)c1S(=O)(=O)N(C)C1CCCCC1	4.9	98.0	103.0	0.0
O=C1CN(c2ccccc2)C(=O)N1	14.1	98.0	100.0	1.1
O=C(CCn1c(=O)oc2cc(Br)ccc21)NCc1ccco1	-5.3	101.0	100.0	8.8
CCCC(C)NS(=O)(=O)Cc1ccccc1 (stereo not drawn)	-23.4	102.0	101.0	-13.8
O=C(O)CC1N=C(Nc2nc3ccccc3s2)NC1=O (stereo not drawn)	-21.4	102.0	106.0	15.1
CSc1nnc(/N=C/c2c(O)ccc3ccccc23)s1	-32.9	120.0	98.0	16.2
CO[C@@H]1[C@@H](OC2OC(C)C(OC3CC(C)(O)C(OC(=O)CC(C)C)C(C)O3)C(N(C)C)C2O)[C@@H](CC=O)C[C@@H](C)[C@@H](O)/C=C/C=C/C[C@@H](C)OC(=O)C[C@H]1OC(C)=O (stereo partly drawn)	-0.4	101.0	100.0	-7.7
COc1ccc(C)cc1S(=O)(=O)NC1CC1	-11.0	103.0	102.0	-7.2
CCn1cc(C(=O)N2CCN(c3ccc(C)cc3)C(C)C2)c2cc(OC)c(OC)cc2c1=O (stereo not drawn)	-23.3	99.0	101.0	11.6
OC(Cc1ccccc1)c1ccccc1 (stereo not drawn)	-23.6	102.0	101.0	-7.8
CSc1sc(C#N)c(C)c1C(=O)/C=C/N(C)C	-15.1	100.0	101.0	9.1
COC(=O)CNC(=O)c1ccc(Cl)cc1	-34.0	103.0	109.0	/
O=c1nc(N(c2ccccc2)c2ccccc2)[nH]c(=O)[nH]1	-9.6	102.0	102.0	8.7
CCOC(=O)c1cc(C)n(CC(=O)Nc2ccc(C)cc2)c1C	6.2	107.0	102.0	13.1
O=C(Cc1ccc2c(c1)OCCO2)Nc1ccnn1C1CCCCC1	-15.9	106.0	102.0	14.9
Cc1cccc(OCc2nnc(SCc3nc4ccsc4c(=O)[nH]3)o2)c1	-11.1	116.0	112.0	-18.1
COC(=O)c1cc(S(=O)(=O)NCCN(Cc2ccco2)C2CCCC2)cn1C	-19.3	101.0	100.0	-2.8
COc1cc(CN2CCN(C3CCCCCC3)CC2)cc(OC)c1OC	-6.8	102.0	102.0	-9.3
OC(CN1CCCCCC1)c1ccccc1 (stereo not drawn)	/	103.0	103.0	-7.8
CCOC(=O)c1nc(Nc2cccc(C)c2C)c2ccccc2n1	-7.2	103.0	100.0	-223.2
Cn1c2ccccc2c2cnn(CC(=O)NCCc3ccccc3)c(=O)c21	-17.7	102.0	102.0	8.3
O=C(/C=C/c1ccccc1)OCC(=O)N1CCc2ccccc2C1	/	100.0	102.0	-8.3
CN(C(=O)CN1CCN(S(=O)(=O)c2ccc3c(c2)CCCC3)CC1)C1(C#N)CCCCC1	-28.7	110.0	107.0	-15.6
c1nc(NC2CCCCC2)c2[nH]cnc2n1	3.9	101.0	100.0	-3.1
NCCCC(N)CC(=O)NCC1NC(=O)C(CO)NC(=O)C(N)CNC(=O)C(C2CCN=C(N)N2)NC(=O)/C(=C\NC(N)=O)NC1=O (stereo not drawn)	8.7	101.0	101.0	-30.0
CCOc1cc(CNc2ncn[nH]2)ccc1OCC(=O)NC(C)(C)C	-11.9	99.0	101.0	-9.6
COc1cc(/C=C/C(=O)NCCSc2c[nH]c3ccccc23)cc(OC)c1OC	-7.9	99.0	102.0	3.4
COc1ccccc1CNC(=O)COc1ccccc1	-13.3	99.0	101.0	/
COC(=O)/C(=C/c1ccccc1)c1ccccc1	11.4	115.0	109.0	-4.7
COC(=O)c1ccc(N=NN2CCCCCC2)cc1	-1.8	107.0	106.0	/
CCCCC(O)(c1ccc(N(C)C)cc1)c1ccc(N(C)C)cc1	-31.1	101.0	102.0	14.6
S=c1[nH]nc(C2CCCCC2)o1	-70.8	95.0	98.0	16.5
COc1ccc(NC(=S)NC(=O)c2oc3ccccc3c2C)c(OC)c1	-29.7	102.0	100.0	-1.9
Cc1nc(COc2ccc(/C(N)=N/OC(=O)N(C)C)cc2)cs1	-9.3	106.0	105.0	-3.2
Cc1cc(C)n(C(=O)COc2ccccc2)n1	-8.3	107.0	105.0	/
Cc1ccc(CC(=O)c2cccnc2)cc1	8.6	110.0	103.0	0.8
CCc1ccc2nc(N3CCC(C(=O)NCc4ccccc4)CC3)sc2c1	-1.1	109.0	103.0	-5.0
COc1ccc(Cn2nnnc2CN2CCC(NC(=O)c3cccc(OC)c3)CC2)cc1	-54.1	101.0	102.0	4.8
CSc1ccc(NC(=O)N2CCC(N3CCCCC3)CC2)cc1	-2.1	102.0	101.0	5.0
COc1cc(OC)cc(C(=O)OCC(=O)Nc2ncccn2)c1	-11.8	103.0	101.0	5.2
O=c1[nH]nc(-c2ccc(F)cc2)cc1-c1ccccc1	1.5	100.0	99.0	46.0
Oc1ccc2ccccc2c1CNn1cnnc1	1.4	105.0	99.0	/
N#CCCN(CC1CCCO1)C(=S)NC1CC2C=CC1C2 (stereo not drawn)	-20.6	96.0	99.0	-2.4
COc1ccc(OCC(=O)N2CCC(C(N)=O)CC2)cc1	-7.1	106.0	107.0	-2.1
COc1ccc(NC(=O)OCc2ccccc2)cc1OC	0.1	102.0	98.0	-17.4
O=C(NCc1ccco1)c1ccc(-n2c(-c3ccccc3)cc3c2CCCC3)cc1	-3.8	100.0	98.0	-10.1
CCC(Sc1nnnn1-c1ccccc1)C(=O)NC1=NN=C(c2ccc(C)cc2)CS1 (stereo not drawn)	-26.9	103.0	105.0	1.0
CN(C(=O)c1cccc(F)c1)C(C)(C)C	-26.6	102.0	100.0	-10.6
CSc1nc(-c2ccco2)nn1S(C)(=O)=O	-3.4	95.0	100.0	84.3*
Cc1ccc(Cc2c[nH]c(=S)s2)cc1	-65.4	111.0	103.0	89.8*
CC1=NC2C(C=NN2c2ccccc2)C(SCC(=O)NCCc2ccc(F)cc2)=N1 (stereo not drawn)	-61.7	110.0	104.0	-7.8
CSc1ncc(C(=O)NCc2ccc(S(N)(=O)=O)cc2)n1-c1ccccc1	-22.5	/	/	6.5
Cc1ccc(C(=O)COC(=O)c2cnccn2)cc1C	-8.6	105.0	106.0	/
Cc1cc(-c2nc(C(=O)/C=C/N(C)C)cs2)no1	-8.8	105.0	106.0	1.9
COc1ccc2oc(C(=O)OCC(=O)N(C)C)c(C)c2c1	5.8	109.0	105.0	104.0
COc1cccc(C(=O)NC2CCSC2=O)c1 (stereo not drawn)	-55.4	102.0	101.0	-13.9
CSc1nc(C)cc(OCCO)n1	-12.1	109.0	104.0	-12.2
Cc1nc2sccn2c(=O)c1S(=O)(=O)N1CCc2ccccc21	0.5	106.0	102.0	-7.4
O=S(=O)(c1ccccc1)N1CCN=C1SCc1ccccc1	-19.2	103.0	105.0	-6.2

# Additional entries follow:
Structure	Mtb MenB inh	Polio RdRp inh intensity	Polio RdRp inh	Mtb MbtI inh
N/C(CC(=O)Nc1ccc2c(c1)OCCO2)=N\O	2.2	106.0	106.0	-2.1
COc1ccccc1OCC(=O)N1CCN(C(c2ccccc2)c2ccccc2)CC1	-25.8	100.0	99.0	-10.2
CN(C)/N=C/c1ccc(OC(=O)c2ccccn2)cc1	3.8	103.0	103.0	14.3
CCCN1C(=O)/C(=C/c2ccc(F)cc2)SC1=S	/	98.0	100.0	-5.2
O=C(CNc1ccccc1)N/N=C/c1cn(-c2ccccc2)nc1-c1cc2ccccc2o1	-17.3	107.0	102.0	-7.4
CCN(C(=O)CSc1ncc(C#N)c(N)n1)c1ccccc1	3.1	104.0	99.0	-4.4
COCCn1cc(C(=O)N2CCC3(CC2)OCCO3)c2c3ccccc3n(C)c2c1=O	3.2	102.0	102.0	115.9
Cc1nn(C)c(C)c1/C=C/C(=O)N1CCCSc2ccccc21	-1.5	95.0	98.0	12.2
Cc1ccc2nc(CNCc3ccc(S(N)(=O)=O)cc3)cc(=O)n2c1	-11.3	93.0	100.0	11.9
CS(=O)(=O)N(CC(=O)N1CCCC1)c1cccc(Cl)c1Cl	-22.0	103.0	101.0	-7.2
CCCCNC(=O)Sc1ccc2ccccc2c1	-8.0	91.0*	84.0*	51.3
O=C(COn1nnc2ccccc21)N1CCN(c2ccccc2)CC1	-25.3	99.0	103.0	-10.4
Cc1ccc(C2OCC3(CO2)COC(c2ccc(C)cc2)OC3)cc1 (stereo not drawn)	-22.1	109.0	105.0	-3.9
Cc1ccc2nc(Cl)c3cc(C(=O)N(CCN(C)C)Cc4ccco4)sc3c2c1	-12.1	92.0	102.0	-2.9

# Bioassay records deposited in PubChem BioAssay by ICCB-Longwood Screening Facility, Harvard Medical School.
